High-throughput results: PubChem, several laboratories
CBX7 inh = blocks human CBX7 binding to H3K27me3 peptide | O95931 | AlphaScreen His6-CBX7 / biotin-H3K27me3 peptide binding; active compounds read low | normalised signal (fraction of DMSO) (concentration not given with the values) | 66,000 compounds, 1.1% hits; in the data active means normalised signal below about 0.5;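 further: 100 nL library stock added to about 20 µL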
Target sequence (O95931 whole entry, looked up): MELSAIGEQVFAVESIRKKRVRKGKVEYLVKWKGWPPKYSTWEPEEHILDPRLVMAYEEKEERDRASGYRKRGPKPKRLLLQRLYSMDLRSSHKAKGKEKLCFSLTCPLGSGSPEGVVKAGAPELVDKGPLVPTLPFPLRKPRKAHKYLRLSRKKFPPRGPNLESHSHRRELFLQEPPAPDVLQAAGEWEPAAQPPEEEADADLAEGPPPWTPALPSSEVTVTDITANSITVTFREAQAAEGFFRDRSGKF
CBX7 inh z-score = also measured in CBX7 inh; calls as there; z-score; measured here: z-score of CBX7 signal; some inactives read as strong as hits; reference of the scale not given here;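 same signal on another scale; lower means less binding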
Starred values were filed as active, the others as inactive. A portion of the library. The share of hits here may be higher or lower than overall.

Values run as follows: CBX7 inh, CBX7 inh z-score
CCc1ccccc1Nc1cc(C(=O)NCc2cccs2)c2ccccc2n1
  1.1, 0.93
COc1ccccc1CNC(=O)CN1C(=O)COc2ccc(S(=O)(=O)N3CCC(C)CC3)cc21
  1.1, 1.1
CC(=O)c1ccc(N2C(=O)C3C4C=CC(C5CC45)C3C2=O)cc1 (stereo not given)
  0.99, -0.18
COc1ccc(-c2nnc(Oc3ccc(C)cc3)c3ccccc23)cc1
  0.82, -0.73
CCOC(=O)c1cnc2ccc(C)cc2c1Nc1ccc(N2CCCCC2)cc1
  0.28*, -7.8*
CC1CCN(S(=O)(=O)c2ccc3c(c2)N(CC(=O)NCc2ccccc2)C(=O)CO3)CC1
  1, 1.6
Cc1cc2nc(-c3ccc(C)c(NC(=O)c4cccs4)c3)oc2cc1C
  0.79, -2.7
CCN1C(=O)c2ccccc2S(=O)c2ccc(C(=O)NCCN3CCCCC3C)cc21 (stereo not given)
  1, 0.64
CCC(C(=O)NC(C)CCc1ccccc1)n1ncc2ccccc21 (stereo not given)
  0.99, -0.33
Cc1ccnc(NC(=O)CCc2c(C)nc3ncnn3c2C)c1
  1.1, 1.9
CCN(C(=O)C1CCCN(S(=O)(=O)c2c(C)noc2C)C1)c1cccc(C)c1 (stereo not given)
  1, 0.37
Cc1cccc(Cn2c(=O)cc(C(=O)NCc3ccc4c(c3)OCO4)c3ccccc32)c1
  0.88, -1.3
COc1ccccc1C(=O)Nc1cc(-c2nn(C)c(=O)c3ccccc23)ccc1N1CCOCC1
  1, 0.54
CN(C)c1ccc(Nc2nc(-c3ccccc3)cs2)cc1
  0.34*, -8.3*
CCOc1cccc(C(=O)Nc2ccc3oc(-c4ccc(C(C)(C)C)cc4)nc3c2)c1
  1, 1.3
O=C(COc1ccccc1Cl)Nc1ncc(Cc2cccc(C(F)(F)F)c2)s1
  1.1, 0.33
Cc1cc2nc(-c3cccc(NC(=O)Cc4ccccc4)c3C)oc2cc1C
  0.97, -0.069
Cc1ccc(S(=O)(=O)C2(C(=O)NCc3ccccc3Cl)CC2)cc1
  1, 0.89
O=C1CN(c2cccc(C(=O)O)c2)S(=O)(=O)c2ccccc2N1
  1.1, 0.75
COc1ccc(-c2nc3ccccc3o2)cc1NC(=O)C(C)C
  1.1, 0.058
O=C(COc1ccc(CNc2cccc(-c3nc4ccccc4o3)c2)cc1)N1CCOCC1
  1.1, 2.4
COc1cc2ccccc2cc1C(=O)Nc1ccc(-c2nc3ccccc3o2)cc1
  1.1, 2.2
O=C(CN1C(=O)COc2ccccc21)Nc1ccc(Cl)cc1
  0.98, -0.83
COc1ccc(CCNC(=O)C2c3ccccc3C(=O)N2CCC(C)C)cc1OC (stereo not given)
  0.85, -1.8
O=C1CCCc2c1cc(C(=O)Nc1ccc(Cl)cn1)c(=O)n2-c1ccccc1
  1.7, 2.9
O=C(NC1CCCCCCC1)C1c2ccccc2C(=O)N1CCCN1CCOCC1 (stereo not given)
  0.51, -17
CCCOc1ccc(C(=O)Nc2cc(-c3nc4ccccc4o3)ccc2C)cc1
  1, 1.9
Cc1cc(NC(=O)c2cc(-c3ccc(O)cc3)on2)no1
  0.96, -1.4
Cc1ccc(-n2ncc(C(=O)Nc3ccc(F)cc3)c2C2CCNCC2)cc1C
  0.92, -1.5
CN(C)c1oc(-c2ccccc2)nc1S(=O)(=O)c1ccccc1
  1.1, 1.8

An excerpt of these results, as tab-separated lines.
structure	CBX7 inh	CBX7 inh z-score
CCC(C(=O)NC(C)CCc1ccccc1)n1ncc2ccccc21 (stereo not given)	0.99	-0.33
O=C(COc1ccccc1Cl)Nc1ncc(Cc2cccc(C(F)(F)F)c2)s1	1.1	0.33
CCOc1cccc(C(=O)Nc2ccc3oc(-c4ccc(C(C)(C)C)cc4)nc3c2)c1	1	1.3
O=C(COc1ccc(CNc2cccc(-c3nc4ccccc4o3)c2)cc1)N1CCOCC1	1.1	2.4

In a second layout: two of the compounds above.
Molecule: COc1ccc(-c2nc3ccccc3o2)cc1NC(=O)C(C)C
  CBX7 inh: 1.1
  CBX7 inh z-score: 0.058

Molecule: CCC(C(=O)NC(C)CCc1ccccc1)n1ncc2ccccc21 (stereo not given)
  CBX7 inh: 0.99
  CBX7 inh z-score: -0.33

Back to the main list, repeating the 5 entries before the break.
Values run as follows: CBX7 inh, CBX7 inh z-score
O=C(NC1CCCCCCC1)C1c2ccccc2C(=O)N1CCCN1CCOCC1 (stereo not given)
  0.51, -17
CCCOc1ccc(C(=O)Nc2cc(-c3nc4ccccc4o3)ccc2C)cc1
  1, 1.9
Cc1cc(NC(=O)c2cc(-c3ccc(O)cc3)on2)no1
  0.96, -1.4
Cc1ccc(-n2ncc(C(=O)Nc3ccc(F)cc3)c2C2CCNCC2)cc1C
  0.92, -1.5
CN(C)c1oc(-c2ccccc2)nc1S(=O)(=O)c1ccccc1
  1.1, 1.8
O=C(Nc1ccc(-c2nc3ncccc3o2)cc1)c1ccc(-c2ccc(F)cc2)o1
  0.99, -0.055
Cc1ccc(Cc2c(C)nc3nc(SCC(=O)NCc4ccccc4Cl)nn3c2C)cc1
  0.86, -1.3
Cc1ccc(-c2nc(CS(=O)(=O)CC(=O)NCCCN3CC(C)CC(C)C3)c(C)o2)cc1 (stereo not given)
  0.99, -0.0068
O=C(NCc1ccc2c(c1)OCO2)C1(NS(=O)(=O)c2cccc3cccnc23)CCCCC1
  1.1, 2.8
COCCNC(=O)C1CC(c2ccc(OC)cc2)=NO1 (stereo not given)
  1, 0.092
Cc1cc2nc(-c3cccc(NC(=O)C(C)C)c3C)oc2cc1C
  1, 0.097
O=C(Nc1ccccc1-c1nc2ccccc2s1)c1cc(Cl)ccc1Cl
  1.1, 2.1
CCn1c2ccccc2c2nnc(SCC(=O)NC(C)c3ccccc3)nc21 (stereo not given)
  0.81, -2.9
COc1ccc(CCNC(=O)Cn2ncc3c2-c2ccccc2OC3)c(OC)c1
  1, 0.29
Cc1ccc(C)c(Cn2c(SCc3ccccc3F)nc3ccncc32)c1
  1, 0.36
CCCN(C(=O)Cn1nc(Cc2cccnc2)c2ccccc2c1=O)c1ccc(C(C)C)cc1
  0.96, -1.2
O=C(CCCC1=NS(=O)(=O)c2ccccc2N1)Nc1ccccc1F
  1.1, 1.7
CCCCNC(=O)c1cc(-c2cccs2)nc2ccc(S(=O)(=O)NCCCC)cc12
  1, 0.38
COc1cccc(CNC(=O)C2CCN(S(=O)(=O)c3ccc4c(c3)CCC(=O)N4)CC2)c1
  1.1, 1.8
Cc1cccc2oc(-c3ccc(NC(=O)c4ccc(Cl)cc4)cc3)nc12
  0.8, -3.1
COC(=O)C1=NNC(Nc2ccc(F)cc2)c2ccccc21 (stereo not given)
  1, 0.075
CCCN(CCC)CCNC(=O)c1cc2c(-c3ccc(Cl)cc3)nn(C)c2s1
  1.2, 0.86
Cc1ccc(-c2csc(Nc3ccc(S(N)(=O)=O)cc3)n2)cc1C
  0.89, -4.6
CCSc1nnc(NC(=O)CSc2nnc(CNC(=O)c3ccc(OC)c(OC)c3)o2)s1
  0.99, -0.24
CCc1nnc(NC(=O)C2CCN(C(=O)c3cc4sccc4n3Cc3ccc(F)cc3)CC2)s1
  0.94, -2.3
CCc1cc(C)cc(OCC(O)CN2C(=O)NC(C)(C)C2=O)c1 (stereo not given)
  1.2, 0.52
COc1ccc(CCNc2nc(SCC(=O)NCc3ccccc3)nc3ccccc23)cc1OC
  1, 1.3
OCC(O)Cn1c(SCCOc2ccc(Cl)cc2)nc2ccccc21 (stereo not given)
  1, 0.57
Cc1ccc(OCC(O)CN(CCO)Cc2ccccc2)c(C)c1 (stereo not given)
  0.91, -1.3
CCC(=O)N1CCc2cc(Br)cc(S(=O)(=O)NCCCN(C)C)c21
  1.1, 2.5
COc1ccccc1NC(=O)[C@H](CSCc1ccccc1)N1Cc2ccccc2C1=O
  0.81, -4.4
CCOc1cc2c(cc1OCC)C(c1cc(C)c(C)cc1C)NCC2 (stereo not given)
  1.3, 3.2
Fc1ccc(CNc2ncnc3ccccc23)cc1
  1.1, 2.6
Cc1ccc(C(=O)CSc2n[nH]c(-c3ccncc3)n2)cc1
  0.71, -0.58
COc1cccc(-c2c(C(=O)O)c3ccccc3c(=O)n2-c2ccc(C)cc2)c1
  1, 0.13
CCOC(=O)c1cnc2cc(C(F)(F)F)ccc2c1Nc1ccc(C(F)(F)F)cc1
  1.7, 7.7
CCCCN(CC)CCCNC(=O)c1cn(C2CCCC2)c(=O)c2c1c1ccccc1n2C
  0.92, -2.1
CCOC(=O)c1ccc(NC(=O)c2cnc3scc(C)n3c2=O)cc1
  1, 1.5
Cc1ccc(-c2nnc(Nc3ccccc3O)c3ccccc23)cc1
  0.93, -1.4
CCOc1cc2c(cc1OC)C(c1ccc(OC)c(OC)c1)NCC2 (stereo not given)
  1.1, 1.2
Cc1ccccc1-c1nc(-c2ccc(NC(=O)c3cccc(Cl)c3)cc2)no1
  1, 0.51
COC(=O)CN1C(=O)CC(C)(C)Sc2ccccc21
  1, 0.21
COc1ccc(N2Cc3cccc(C(=O)NCc4ccccc4Cl)c3C2=O)cc1
  0.86, -3.4
Cc1ccc(NC(=O)C(=O)NCCc2c[nH]c3ccccc23)cc1C
  0.89, -1.1
CCCCCc1ccc(-c2ccc(C(=O)Nc3cc(Cl)ccc3C)cc2)nc1
  1.1, 0.1
COc1ccc(-c2noc(-c3cccc(Cl)c3)n2)cc1
  1, 1.5
Cc1ccc2nc(-c3ccccn3)c(Nc3ccc(F)cc3)n2c1
  0.21*, -17*
Cc1ccc2ncnc(NCCC(=O)O)c2c1
  1.1, 1.2
COc1cccc(-c2nn(C)c3sc(C(=O)N4CCCCC4C)cc23)c1 (stereo not given)
  1, 0.095
COc1ccc(CNC(=O)C2CCCN(C(=O)N(C)C)C2)cc1 (stereo not given)
  1, 0.61
COc1ccccc1CNC(=O)CN1C(=O)CSc2ccc(S(=O)(=O)N3CCOCC3)cc21
  0.99, -0.27
CN(C(=O)Cc1c[nH]c2ccc(Cl)cc12)c1ccc(F)cc1
  1, 0.59
O=C(NCCN1CCCC1)c1n[nH]c(=O)c2ccccc12
  1, 0.17
COc1ccc(NC(=O)Cc2cc3ccccc3n2Cc2ccccc2)cc1
  0.93, -0.87
O=C(NCCN1CCN(c2cccc(Cl)c2)CC1)c1ccc2c(c1)ncn2C1CCCCC1
  0.92, -3.7
Cc1cc(Nc2ccc(F)cc2Cl)n2nc(C)nc2n1
  1, 0.32
CCC1Oc2ccc(Cl)cc2N(CC(=O)N2CCOCC2)C1=O (stereo not given)
  1, -0.055
Cc1cccc(NC(=O)C2CCCN(S(=O)(=O)c3c(C)noc3/C=C/c3cccs3)C2)c1 (stereo not given)
  0.97, -0.5
CC1CCN(c2nc(-c3cccnc3)nc3ccccc23)CC1
  0.81, -0.69
Cc1ccccc1NCC(O)Cn1c(C)c(C)c2ccccc21 (stereo not given)
  0.81, -2
Cc1ccc(NC(=O)c2cc(-c3ccccc3)nc3c(Cl)cccc23)cc1C
  0.94, -0.76
Cc1cc2ccccc2c(=O)n1CC(=O)NCC(=O)Nc1ccc2c(c1)OCO2
  1.1, 0.8
O=C(Nc1ccccc1)c1ccccc1OCC(O)CN1CCOCC1 (stereo not given)
  1.1, 1.4
CCOc1ccc(CNc2ccc3c(c2)ncn3C(C)(C)C)cc1
  0.78, -4.4
Cc1ccc(Nc2nc(-c3ccc(C)c(C)c3)cs2)cc1
  0.45*, -9.5*

More results follow:
Values run as follows: CBX7 inh, CBX7 inh z-score
O=C(Cn1nc(Cc2cccnc2)c2ccccc2c1=O)Nc1cccc(Cl)c1
  0.92, -1.5
Cn1nc(-c2ccc(Cl)cc2)c2cc(C(=O)NCc3ccccn3)sc21
  1.2, 0.82
Clc1ccc2nc(NCCN3CCOCC3)nc(-c3ccccc3)c2c1
  1.1, 1.5
Cc1ccc(-c2nc(C(=O)NCc3ccccc3Cl)c(C)o2)cc1
  0.99, -0.42
COCCCNC(=O)CCN1C(=O)COc2ccccc21
  1.1, 1.3
O=C(NCCc1ccccc1)c1ccc2c(c1)N(Cc1ccccc1F)C(=O)CS2
  1, 1.4
COc1ccccc1-c1cc(C(=O)Nc2ccn(Cc3ccc(C)cc3)n2)no1
  0.95, -1.4
O=S(=O)(c1cccc2cccnc12)N1CCN(c2ccccc2Cl)CC1
  1, 0.27
CC(C)CCNC(=O)c1c[nH]c2ccc(S(=O)(=O)Nc3cccc(C(F)(F)F)c3)cc2c1=O
  0.76, -4.5
Cc1ccc(-c2nc(N3CC(C)OC(C)C3)c3ccccc3n2)cc1 (stereo not given)
  1.2, 0.19
COc1ccc(C2=NN(CCC(=O)NCCc3ccc(Cl)cc3)C(=O)CC2)cc1
  0.93, -1
Cc1cccc(C)c1NC(=O)c1cccc2c1C(=O)N(C1CCCCC1)C2
  0.95, -0.58
CSc1cccc(NC(=O)CCc2nc(-c3ccccc3F)no2)c1
  1.1, 1.9
CCOc1ccc(-c2cc(C(=O)NCC(C)CN(CC)CC)c3ccccc3n2)cc1 (stereo not given)
  1, 1.6
CCCCNC(=O)C1CCN(c2nc3ccc(OC)cc3s2)CC1
  1.1, 1.6
CC1CCC(NC(=O)C2c3cccn3CC(=O)N2Cc2ccc(Cl)cc2)CC1 (stereo not given)
  1, -0.07
O=C(NCc1ccccn1)C1CCC(=O)N1C1CCCCC1 (stereo not given)
  0.96, -1.7
Cc1ccc(-c2nc(CSCC(=O)NCc3ccc(Cl)cc3)c(C)o2)cc1
  0.89, -2.1
CC1(C)Cc2nc(NCc3ccccc3)c(C#N)cc2CO1
  1, -0.051
CC(CCc1ccccc1)NC(=O)c1ccc2c(c1)N(Cc1ccccc1)C(=O)CS2 (stereo not given)
  0.99, -0.087
COc1cccc(-n2ccnc2SCC(=O)Nc2ccc(OC)cc2OC)c1
  0.97, -0.62
CCn1cc(C(=O)N(C)c2cc(C)ccc2C)c2cc(OC)c(OC)cc2c1=O
  1.2, 1.6
